# Bioassay records deposited in PubChem BioAssay by several laboratories.
# FPRL1 ligand = human FPRL1 ligand, with FPR counter-screen; FPRL1-expressing cells, fluorescent ligand binding inhibition, flow cytometry; inhibition, %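 (tested at 6.7 µM)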; 24,000 tested, 0.3% active;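 note: 0% = buffer alone and 100% = receptor blocker peptide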
# Target sequence (P25090 whole entry, looked up): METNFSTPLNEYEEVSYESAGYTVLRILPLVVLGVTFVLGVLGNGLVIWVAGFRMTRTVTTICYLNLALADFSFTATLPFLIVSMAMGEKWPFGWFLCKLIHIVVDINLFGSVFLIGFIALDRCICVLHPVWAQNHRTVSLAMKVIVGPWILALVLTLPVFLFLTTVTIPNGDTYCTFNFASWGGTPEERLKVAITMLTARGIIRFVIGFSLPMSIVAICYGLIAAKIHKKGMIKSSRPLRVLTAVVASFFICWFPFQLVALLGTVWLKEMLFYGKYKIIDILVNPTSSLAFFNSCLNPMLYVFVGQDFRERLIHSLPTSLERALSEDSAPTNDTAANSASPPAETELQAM
# FPR ligand = ligands of human FPR, also counter-screen for FPRL1 ligands; FPR-expressing cells, fluorescent ligand binding, flow cytometry; inhibition, %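 (tested at 6.7 µM)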; AID 440; P21462; 24,000 tested, 0.74% active;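 note: 0% = buffer wells and 100% = receptor blocker peptide wells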
# Target sequence (P21462 whole entry, looked up): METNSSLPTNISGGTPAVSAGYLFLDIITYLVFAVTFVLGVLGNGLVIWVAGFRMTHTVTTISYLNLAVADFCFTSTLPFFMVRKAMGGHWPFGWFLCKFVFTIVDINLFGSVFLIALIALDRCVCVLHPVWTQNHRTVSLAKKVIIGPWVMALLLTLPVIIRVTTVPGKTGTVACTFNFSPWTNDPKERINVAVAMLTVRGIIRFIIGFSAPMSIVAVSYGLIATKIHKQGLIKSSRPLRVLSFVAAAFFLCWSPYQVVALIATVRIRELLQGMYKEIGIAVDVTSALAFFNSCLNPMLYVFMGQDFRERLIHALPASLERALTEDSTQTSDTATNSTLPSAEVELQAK
# VCAM-1 up imaging = enhancers of VCAM-1 display on endothelial cells, imaging, high-content imaging, pooled HUVEC, TNFa stimulus (AID 457); 10,000 tested, 0.2% active; Pooled HUVEC, TNFa-induced VCAM-1 immunofluorescence imaging; hits of this screen are not shown here; calls only;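 active = a top-ranked rise in VCAM-1 staining upheld on image or statistical review; inactive = the rest, including candidates rejected on review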;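 note: compounds tested at 5 µM in the well; cells exposed to compound for 24 hours before fixing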
# VCAM-1 inhibition = inhibitors of TNFa-induced VCAM-1 surface display, cell-based, plate reader, pooled HUVEC, TNFa stimulus (AID 454). inhibition, % at 5 µM. HUVEC TNFa-induced VCAM-1 surface immunofluorescence, plate reader; numbers were filed only for top-ranked candidate wells. 10,000 tested, 0.2% active;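 active = compound among top-ranked inhibitors of TNF-induced VCAM-1 adhesion protein staining, with the hit upheld by image or statistical review; inactive = the rest, including hits rejected on review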;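 note: 0% = TNFa with vehicle and 100% = cells without TNFa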
# VCAM-1 down imaging = inhibitors of TNFa-induced VCAM-1 surface display, imaging, high-content imaging, pooled HUVEC, TNFa stimulus (AID 456); HUVEC TNFa-induced VCAM-1 surface expression, immunofluorescence imaging; numbers were filed only for top-ranked candidate wells; inhibition, % at 5 µM; hits with a dose series show IC50 in µM; 10,000 tested, 0.2% active;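 active = top tenth filtered wells with inhibition above zero that passed visual or statistical confirmation; inactive = the rest, including hits rejected on review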;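 note: 0% = stimulated vehicle wells and 100% = unstimulated cells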
# The depositor's hits bear a star; i = inactive; . = no result given.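 Rule for the calls, unless noted: active = mean above 30%; inconclusive = self-fluorescent; inactive = the rest.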 This is a subset, so the mix of outcomes need not match the whole.
# Every second line gives: FPRL1 ligand | FPR ligand | VCAM-1 up imaging | VCAM-1 inhibition | VCAM-1 down imaging
CCCS(=O)(=O)N1CCCC(C(=O)N2CCN(c3ccccn3)CC2)C1 (configuration not stated)
  -3 | -5 | . | . | .
COc1ccc(-c2cc(C(=O)Nc3cccc(C(C)=O)c3)no2)cc1
  -8 | -6 | . | . | .
COc1ccc(C(=O)N2CCc3cc(OC)c(OC)cc3C2)cc1OC
  -2 | -9 | . | . | .
Cc1ccccc1OCc1nc(-c2ccc(-n3cccc3)cc2)no1
  -1 | -2 | . | . | .
CCOCCCNCc1cccc(OC)c1
  -5 | -5 | . | . | .
CC(C)n1c(CCC(=O)O)ccc1-c1ccccc1
  -3 | -3 | . | . | .
Cc1ccc(Nc2nc(N)nc(CN3CCCCCC3)n2)cc1
  2 | 1 | i | i | i
O=C(Cn1cnc2c(cnn2-c2ccc(F)cc2)c1=O)NCC1CCCO1 (configuration not stated)
  -4 | -5 | . | . | .
COc1ccc(-c2c(C)oc3cc(O)cc(O)c3c2=O)cc1OC
  -2 | 12 | . | . | .
CCOc1ccc(NC(=O)N2CCN(c3nc4ccccc4s3)CC2)cc1
  17 | 16 | . | . | .
COc1ccc(S(=O)(=O)Cc2ccc(C(=O)N3CCN(c4cccc(C)c4C)CC3)o2)cc1
  -6 | -4 | . | . | .
Cc1cc2ccccc2c(=O)n1CC(=O)NCC(=O)N1CCN(c2cccc(Cl)c2)CC1
  -2 | -2 | . | . | .
COc1cccc(-c2cc(C(F)(F)F)nc(N3CCOCC3)n2)c1
  -14 | -7 | . | . | .
COc1cc2c(c(OC)c1)C(c1ccncc1)CC(=O)N2 (configuration not stated)
  -2 | -1 | i | i | i
CCOc1cc(C(=O)Nc2c3c(nn2C(C)(C)C)CS(=O)C3)cc(OCC)c1OCC (configuration not stated)
  4 | -1 | i | i | i
O=C(O)CSc1cccc2cccnc12
  -6 | 1 | . | . | .
COc1ccc(/C(O)=C2\C(=O)C(=O)N(c3cc(C)on3)C2c2ccccc2OC)cc1C (configuration not stated)
  -10 | -23 | . | . | .
O=C(NCC(F)(F)F)N1CCOCC1
  -2 | 0 | i | i | i
Cc1c(NC(=O)Cn2nc(C(=O)O)c3ccccc3c2=O)c(=O)n(-c2ccccc2)n1C
  6 | -5 | i | i | i
Cc1c(NC(=O)OCCNC(=O)Nc2ccccc2)sc(=S)n1C
  -8 | -10 | . | . | .
O=C(NCc1cccnc1)c1ccccc1Br
  0 | 8 | i | i | i
COc1ccccc1-c1nnc(SCC(=O)N2CCOCC2)o1
  -1 | -1 | . | . | .
COc1ccc(S(=O)(=O)N2CCN(CCO)CC2)cc1-c1nnc2c3ccccc3c(C)nn12
  0 | 2 | . | . | .
N#CCCN1CCN(S(=O)(=O)c2ccc(S(=O)(=O)N3CCCCCC3)cc2)CC1
  0 | 7 | . | . | .
COCCN(C(=O)Nc1ccccc1)C(C)c1cccnc1 (configuration not stated)
  6 | -5 | . | . | .
CC(NC(=O)C1CCCN(S(=O)(=O)c2cccs2)C1)c1ccccc1 (configuration not stated)
  -2 | 2 | i | i | i
CCN(CC)CCN1C(=O)C(=O)/C(=C(/O)c2ccc(F)cc2)C1c1ccncc1 (configuration not stated)
  6 | -2 | . | . | .
C=CCN1C(=O)CS/C1=C(\C#N)S(=O)(=O)c1ccc(C)cc1
  4 | 0 | i | i | i
Cc1ccc(C(=O)N2CCCC(c3nc4c(nnn4Cc4ccccc4)c(=O)[nH]3)C2)cc1 (configuration not stated)
  2 | 2 | i | i | i
CCOc1ccc(-c2nc(CSCC(=O)NCCN3CCOCC3)c(C)o2)cc1
  -7 | -7 | . | . | .
CSc1cccc(-n2cc(-c3ccc4c(c3)OCO4)[nH]c2=O)c1
  -12 | -2 | . | . | .
O=C1CCCc2nn(-c3ccccc3)c(-c3ccncc3)c21
  0 | -2 | . | . | .
Cc1ccc(CNC(=O)CS(=O)Cc2nc(-c3cccs3)oc2C)cc1 (configuration not stated)
  2 | 13 | . | . | .
O=C(Nc1ccc(Br)cc1F)C1CCCN(S(=O)(=O)c2cnc[nH]2)C1 (configuration not stated)
  0 | 0 | . | . | .
O=C(OCC(CO)OC(CO)n1ccc(=O)[nH]c1=O)c1ccccc1 (configuration not stated)
  8 | -6 | . | . | .
Cc1cc(NC(=O)CSc2nc3c(c(=O)n2-c2ccc(Br)cc2)SCC3)no1
  2 | -3 | . | . | .
CCCCC(CC)CNC(=O)C1CCCN(S(=O)(=O)c2cnc[nH]2)C1 (configuration not stated)
  1 | 6 | i | i | i
COc1ccc(NC(=O)CN(c2ccc(C(C)C)cc2)S(=O)(=O)c2c(C)noc2C)cc1OC
  11 | 2 | i | i | i
C[C@@H]1C[C@H]2[C@@H]3CCC4=CC(=O)C=C[C@]4(C)[C@@]3(F)[C@@H](O)C[C@]2(C)[C@@]1(O)C(=O)COP(=O)(O)O
  0 | -4 | i | i | i
CCOc1ccc(NC(=O)CSc2nccn2C)cc1
  0 | 0 | i | i | i
CCOC(=O)c1oc2ccccc2c1CN1CCN(C(=O)c2ccccc2)CC1
  0 | -7 | . | . | .
O=C(O)C1CC=C(Cl)CC1C(=O)NCC1OCCc2ccccc21 (configuration not stated)
  -1 | 4 | . | . | .
O=C(Nc1ccccc1F)C1CCCN(S(=O)(=O)c2cccc3cccnc23)C1 (configuration not stated)
  -3 | -6 | . | . | .
CC1CCc2c(sc3c2C2=NS(=O)(=O)CCN2C=N3)C1 (configuration not stated)
  -6 | -4 | i | i | i
COc1ccc(OC)c(C2CC(=O)N3CN(c4ccccc4F)CSC3=C2C#N)c1 (configuration not stated)
  2 | 18 | . | . | .
CCOC(=O)CSC1=C(C#N)C(=O)NC2(CCCCC2)S1
  1 | -4 | i | i | i
CCn1c(=N)n(CC(=O)c2ccco2)c2ccccc21
  -2 | 1 | i | i | i
Cc1nn(-c2ccccc2)c2c1C(O)n1c(nc3ccccc31)S2 (configuration not stated)
  -5 | 21 | i | i | i
O=C(NC1CCCc2ccccc21)C1CCN(S(=O)(=O)c2cccc3nsnc23)CC1 (configuration not stated)
  0 | 3 | . | . | .
O=C1CCC(C(=O)N(Cc2ccco2)C2(C(=O)NC3CCCC3)CCCCC2)N1 (configuration not stated)
  0 | -7 | i | i | i
CCOC(=O)N1CCC(NC(=O)c2ccc3c(=O)n4c(nc3c2)CCCC4)CC1
  -4 | 1 | . | . | .
COc1ccccc1NC1=NC(c2ccc(Cl)cc2)N=C(N)N1 (configuration not stated)
  -2 | -5 | i | i | i
CCOC(=O)C1CCCN(c2c(NCC3CCCN3CC)c(=O)c2=O)C1 (configuration not stated)
  -2 | -4 | . | . | .
CCC(=O)Nc1c2c(nn1-c1ccccc1C)CSC2
  5 | 13 | i | i | i
O=C(Nc1ccc2c(c1)OCCO2)C1CCN(S(=O)(=O)c2cccc3nsnc23)CC1
  3 | 4 | . | . | .
COC(=O)c1cc2oc(C)cc2n1CC(=O)Nc1ccc(C)c(C)c1
  -7 | 0 | i | i | i
Cc1ccc(S(=O)(=O)N2CCN(C(=O)CSc3nnc(C)s3)C2)cc1
  2 | -7 | . | . | .
CCCn1c(NCc2cc(C)ccc2O)nc2ccccc21
  11 | 26 | i | i | i
COc1ccc(-n2c(=O)cc(N3CCN(c4ccccc4)CC3)[nH]c2=O)cc1
  4 | 3 | . | . | .
COc1ccc2[nH]c3ccccc3c2c1
  -2 | 1 | . | . | .

# Going on with the list:
# Every second line gives: FPRL1 ligand | FPR ligand | VCAM-1 up imaging | VCAM-1 inhibition | VCAM-1 down imaging
COc1ccc(N2CCN(C(=O)CCNS(=O)(=O)c3ccc(Br)s3)CC2)cc1
  2 | -4 | i | i | i
CCOC(=O)CCN(Cc1cccs1)S(=O)(=O)c1ccc(F)cc1
  3 | 1 | . | . | .
CC1(C)CC(=O)C2=C(C1)NC(=O)CC2c1cc(F)ccc1F (configuration not stated)
  1 | 2 | . | . | .
COc1ccc(C(=O)NCc2cn3c(C)csc3n2)cc1OC
  -1 | -6 | . | . | .
O=C(CCN1C(=O)c2ccccc2S1(=O)=O)N1CCN(c2ccccc2)CC1
  5 | -10 | . | . | .
CCOC(=O)N1CCC(NC(=O)c2ccc3c(c2)sc2nc(-c4ccc(OC)cc4)cn23)CC1
  -4 | -8 | . | . | .
CCOc1nc(Nc2ccc(-c3nc4ccccc4o3)cc2)nc(N2CCOCC2)n1
  -10 | -14 | . | . | .
C=CCOC(=O)CC(NC(=O)c1ccccc1)c1ccccc1 (configuration not stated)
  0 | -9 | i | i | i
CCOC(=O)c1oc2ccccc2c1NC(=O)c1cc(OC)cc(OC)c1
  10 | 18 | . | . | .
Cc1ccc2nc(N3CCOCC3)c3nncn3c2c1
  -6 | -4 | . | . | .
CCOC(=O)c1ccccc1NC(=O)c1cn(CC)c2nc(C)ccc2c1=O
  -7 | 0 | . | . | .
COCCN1C(=O)c2oc3ccccc3c(=O)c2C1c1ccc(O)c(OC)c1 (configuration not stated)
  6 | -1 | . | . | .
CCN(CC)CCCNC(CC(=O)O)C(=O)O (configuration not stated)
  1 | -3 | . | . | .
Cc1ccc(CNc2cc(-c3nn4c(C)nnc4s3)ccc2C)s1
  -13 | 13 | i | 90 | 100%
COc1cc(C2C3=C(Nc4ncnn42)c2ccccc2CC3)cc(OC)c1OC (configuration not stated)
  0 | 0 | . | . | .
COc1ccc(C2C(C(N)=O)=C(C)Nc3nc(-c4ccccc4Cl)nn32)c(OC)c1 (configuration not stated)
  -3 | 0 | . | . | .
Cn1c(SCC(=O)Nc2ccc(F)cc2)nnc1-c1cccnc1
  6 | -4 | i | i | i
O=C1CCc2nc3sc4c(c3c(=O)n2N1)CCCC4
  5 | -2 | i | i | i
CCN(CC)C(=O)C1CCCN(Cc2ccc(N(C)C)cc2)C1 (configuration not stated)
  8 | 6 | i | i | i
Cc1csc(NC(=O)CSc2nnc(Cc3cccn3C)n2-c2ccc(F)cc2)n1
  1 | 0 | i | i | i
CCOC(=O)N1CCC(NC(=O)c2cc3sccc3n2CC)CC1
  -2 | 3 | . | . | .
CC(C)(C)OC(=O)N1CCC(C(N)=O)CC1
  8 | 6 | . | . | .
O=C(CSc1oc(-c2ccco2)nc1S(=O)(=O)c1ccccc1)NCC1CCCO1 (configuration not stated)
  -4 | 2 | i | i | i
O=C(NCCC1=CCCCC1)C1CCCN(S(=O)(=O)c2cccnc2)C1 (configuration not stated)
  18 | 12 | . | . | .
CCOc1ccc(CN(CCO)CCO)cc1C(=O)OC
  -3 | 1 | . | . | .
Cc1nnc(SCC(C)C)[nH]c1=O
  0 | -4 | . | . | .
Cc1nc2nc(C)c(CCC(=O)NC(C)c3ccc4c(c3)OCCO4)c(C)n2n1 (configuration not stated)
  -2 | 0 | . | . | .
Cn1c(=O)c2c(ncn2CC(O)CNc2ccc(Cl)cc2)n(C)c1=O (configuration not stated)
  3 | -8 | i | i | i
CCC(C)[C@@H](C(=O)Nc1ccc(OC)c(OC)c1)N1Cc2ccccc2C1=O (some centres not stated)
  0 | -1 | . | . | .
COc1ccc(-c2nnc3ccc(SC)nn23)cc1
  8 | 5 | . | . | .
CCCN1Cc2cccc(C(=O)N3CCN(c4cc(Cl)ccc4C)CC3)c2C1=O
  2 | 3 | . | . | .
Cc1noc(C)c1S(=O)(=O)NCC(=O)O
  0 | -2 | . | . | .
C=CCSC1=C(C#N)C(c2ccccc2OCC)CC(=O)N1 (configuration not stated)
  -6 | 4 | i | i | i
O=C(CCNS(=O)(=O)c1cccs1)NCc1cccs1
  2 | -7 | . | . | .
COc1ccc2c(c1)C1(Nc3ccccc3-c3nc4ccccc4n31)C(=O)N2 (configuration not stated)
  3 | -2 | i | i | i
CCC1Sc2ccccc2N(CC(=O)NC2CCCC2)C1=O (configuration not stated)
  -6 | 4 | . | . | .
